RanGTP-Impb inh: disruptors of Ran-importin-beta complex formation – biochemical, FRET, CFP-Ran, YFP-importin-beta, homogeneous, primary screen; cell-free CFP-Ran/YFP-importin-beta FRET ratio; inhibition, % (test concentration not listed); 300,000 tested, 1.1% active; AID 2216;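 active = most replicates above 15%; inconclusive = exactly half above 15%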;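 also: 0% = DMSO wells and 100% = Ran loaded with GDP instead of GTP; wells of about 40 µL received 100 nL stock; the first replicate is given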
Vif A3G: inhibitors of Vif binding to APOBEC3G peptide, primary screen, biochemical, TR-FRET, GST-Vif 1-94, biotin-A3G peptide, dose response retest (AID 1117319). one-dose inhibition, %; IC50 in µM for titrated hits. 260,000 tested, 0.57% active. TR-FRET GST-Vif / biotin-A3G peptide binding; higher % means a stronger effect; test concentration not given here; strong numbers were not always called active;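 active = above the screen mean plus three standard deviations and confirmed in dose response; inconclusive = results disagree or hit not tested in dose response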;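 also: Vif residues 1-94 fused to GST binding biotinylated APOBEC3G peptide 110-148; 0% = full assay without inhibitor and 100% = GST in place of GST-Vif; retest series ran down from 100 µM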
Beta apoptosis: beta cell apoptosis inhibition | INS-1E cytokine-induced death, ATP luminescence, 48 h; percent of positive-control rescue, neutral wells zero | protection from apoptosis, % (test concentration not listed) | 300,000 tested, 0.8% active | AID 435005;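 active = all replicates at 75% or more, or half of them and the mean; inconclusive = half reach 75% but not the mean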;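 also: 0% = cytokine-treated negative control wells and 100% = positive control rescue; higher means more ATP so stronger rescue from cytokine killing; wells of about 40 µL received 100 nL stock; the first replicate is given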
T cruzi inh: blocks replication of Trypanosoma cruzi; T. cruzi beta-gal in NIH3T3, luminescence, 90 h; inhibition, % (no concentration beside the values); 300,000 tested, 1.4% active; AID 1885;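 active = mean inhibition across valid replicates above about 55%, limit read from the data; inconclusive = mean below that limit but half or more replicates reach it; inactive = mean below it, under half of replicates reach it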;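 also: signal also drops with host cell toxicity which is not excluded here; 0% = plate median of DMSO wells and 100% = zero luminescence signal; higher percent means less beta-gal luminescence so fewer parasites; stock transfer was 50 nL into about 50 µL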
Calb FLC: C. albicans growth modulation with fluconazole | AID 1979 | C. albicans CaCi-2 (fluconazole-resistant clinical isolate) + fluconazole, Alamar Blue growth, 48 h | 300,000 tested, 0.57% active | growth inhibition, % (concentration not given with the values);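 active = most replicates above 75%; inconclusive = exactly half above 75%; inactive = most below 75%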;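 also: all wells also contain fluconazole at 8 µg/ml as a sub-toxic cotreatment; 0% = median of DMSO wells and 100% = median of geldanamycin control wells; wells of about 8 µL received 7.5 nL stock; the first replicate is given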
MLL AF4-AF9 inh: MLL-AF4/AF9 protein interaction inhibition | P42568 | AlphaScreen, biotin-AF4 peptide binding to FLAG-AF9 | 350,000 tested, 0.47% active | inhibition, % at 10 µM;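 active = every replicate reaching a set inhibition limit, whatever the replicate mean, cut at about 25% in these data; inconclusive = mean inhibition reaches that limit but some replicates miss it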;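 also: 0% = plate neutral control median and 100% = total signal loss; the record names both 10 and 1 µM as test concentration; the first replicate is given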
Target sequence (P42568 whole entry, looked up): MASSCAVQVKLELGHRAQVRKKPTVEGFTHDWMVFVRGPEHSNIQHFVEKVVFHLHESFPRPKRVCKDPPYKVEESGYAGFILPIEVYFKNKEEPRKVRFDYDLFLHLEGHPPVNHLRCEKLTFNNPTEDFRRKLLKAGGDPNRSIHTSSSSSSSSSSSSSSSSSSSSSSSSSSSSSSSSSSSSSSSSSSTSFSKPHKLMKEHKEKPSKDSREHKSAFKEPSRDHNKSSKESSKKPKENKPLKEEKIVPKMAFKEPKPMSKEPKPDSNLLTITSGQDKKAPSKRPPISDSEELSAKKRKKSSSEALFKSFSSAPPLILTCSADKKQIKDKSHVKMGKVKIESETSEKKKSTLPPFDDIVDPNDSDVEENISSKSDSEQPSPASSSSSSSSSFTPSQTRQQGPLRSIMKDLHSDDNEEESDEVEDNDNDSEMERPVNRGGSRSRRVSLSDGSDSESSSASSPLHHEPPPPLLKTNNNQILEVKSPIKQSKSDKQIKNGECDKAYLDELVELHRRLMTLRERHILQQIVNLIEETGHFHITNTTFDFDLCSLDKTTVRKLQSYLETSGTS
LANA-H2A inh: blocks KSHV LANA binding to histone H2A/H2B; Q9QR71; cell-free LANA-H2A/H2B peptide, fluorescence polarization; AID 2629; 320,000 tested, 0.6% active; inhibition, % (no concentration beside the values); in the data active = inhibition mostly above about 10%, no sharp cut-off; inactive = mostly below about 6.7%;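 also: stock transfer was 7.5 nL into about 10 µL; 0% = median of vehicle wells and 100% = median of positive control wells; one replicate is shown; the record names a cut of 25% in any replicate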
A1 inh: inhibitors of the anti-apoptotic protein A1, read as caspase activation. MEF A1-2A-BIM cells, Caspase-Glo 3/7 luminescence, 3 h; percent of clofoctol response, vehicle zero. 330,000 tested, 0.066% active. caspase activation, % (no concentration beside the values);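 active = over half of replicate activation scores above 10%, or exactly half above 10 with the replicate mean above 10; inconclusive = replicate mean below 10 yet half the replicates above 10; inactive = over half of replicates below 10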;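 also: wells of about 30 µL received 50 nL stock; many hits fall short of the cut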
The depositor's hits bear a star; ? = inconclusive; . = no result given; & = joins results of further samples. Compounds as they come; any-hit rate near 4.3%.

Field names: A = RanGTP-Impb inh; B = Vif A3G; C = Beta apoptosis; D = T cruzi inh; E = Calb FLC; F = MLL AF4-AF9 inh; G = LANA-H2A inh; H = A1 inh
Cc1nc(CC(=O)NNS(=O)(=O)c2ccc3ccccc3c2)cs1
  A: 0.7	B: 19%	C: -7	D: -1	E: 3	F: .	G: -4.8	H: -0.7

Cc1ccc(S(=O)(=O)Oc2ccc(/C=C(/NC(=O)c3ccccc3)C(=O)NCCC(=O)O)cc2)cc1
  A: -2.8	B: 8%	C: -10	D: 3	E: -3	F: -1.3	G: 2.2	H: 0.3

O=C(OCc1nnc(-c2ccccc2)o1)c1ccco1
  A: 2.1	B: -4%	C: 5	D: 12	E: -2	F: .	G: 0.4	H: 0.1

COc1cc(CC(=O)NCc2cccs2)cc(OC)c1OC
  A: 1.0	B: -4%	C: 2	D: 2	E: -5	F: .	G: 1.3	H: 0.2

CNC(=S)Nc1cc(Cl)ccc1Oc1ccccc1
  A: -1.0	B: 2%	C: 5	D: 2	E: -11	F: 0.2	G: -0.6	H: -0.3

Cc1nc(Cl)c(C(=O)Nc2cccc(F)c2)c(C)c1Cl
  A: 0.1	B: -11%	C: 3	D: 3	E: -4	F: -0.4	G: -6.0	H: 0.3

COc1ccc2ccccc2c1C1CC(=O)N2CN(C3CCCCC3)CSC2=C1C#N (stereo not drawn)
  A: 1.1	B: 7%	C: 19	D: 12	E: 5	F: -7.8	G: 0.7	H: 0.2

COc1ccc(C2=NN(C(=O)CCC(=O)O)C(c3cccs3)C2)cc1 (stereo not drawn)
  A: -0.7	B: 2%	C: -11	D: -9	E: 6	F: -5.7	G: 0.7	H: 2.9

O=C(CN1CCC(N2CCCCC2)CC1)N1CCOCC1
  A: -3.1	B: .	C: -3	D: -12	E: 1	F: -0.7	G: -1.1	H: -1.2

C[C@]12C(=O)N(c3ccc(F)cc3)C(=O)N1[C@@H]1c3ccccc3OC[C@@H]1[C@H]2c1ccccc1
  A: -0.8	B: .	C: -2	D: -4	E: 3	F: 2.6	G: 3.8	H: 1.6

O=C(NCC1CCCCC1)c1cc(Br)ccc1Cl
  A: 0.2	B: 16%	C: 4	D: -6	E: 3	F: -2.6	G: 3.2	H: 1.0

CC(C)c1onc(C(=O)N2CCN(C(c3ccccc3)c3ccccc3)CC2)c1[N+](=O)[O-]
  A: 0.9	B: 18%	C: -2	D: 57*	E: 11	F: 1.8	G: 6.8	H: -0.5

O=C(NC(=S)Nc1ccc(N2CCOCC2)c(Cl)c1)c1sc2ccccc2c1Cl
  A: -0.1	B: .	C: -2	D: 6	E: 12	F: 0.7	G: -4.3	H: 0.0

CC1=NN(c2nc(-c3ccc(C#N)cc3)cs2)C(=O)C1
  A: 1.6	B: -3%	C: 0	D: -21	E: 41	F: -2.9	G: 1.0	H: -0.2

CC1=NC(=O)C(N=Nc2ccccc2)N1c1ccccc1 (stereo not drawn)
  A: -1.0	B: -3%	C: -4	D: 15	E: -15	F: .	G: -0.5	H: -0.1

Cc1cc(N2C(=O)C(O)=C(C(=O)c3ccc(C)o3)C2c2ccc([N+](=O)[O-])cc2)no1 (stereo not drawn)
  A: 0.4	B: .	C: 2	D: -34	E: -3	F: 2.4	G: 3.2	H: 0.6

Cc1ccc(C(C(=O)NC2CCCC2)N(Cc2ccco2)C(=O)CCC(=O)Nc2ccccn2)cc1 (stereo not drawn)
  A: 3.0	B: 16%&-8%	C: 2	D: 21	E: -1	F: .	G: 2.0	H: 0.9

CC(NS(=O)(=O)c1ccccc1)C1COc2ccccc2O1 (stereo not drawn)
  A: 3.7	B: 2%	C: 4	D: -1	E: 28	F: .	G: -0.8	H: 0.0

O=C(CN1CCCC1)Nc1nc(-c2ccc3c(c2)CCN3C(=O)c2ccccc2F)cs1
  A: 4.0	B: .	C: 12	D: 24	E: 31	F: .	G: 0.5	H: 0.8

O=C(NOC(=O)c1ccccc1)c1ccccc1
  A: 12	B: .	C: -5	D: -14	E: -3	F: -2.2	G: -1.9	H: 2.0

CCOc1ccccc1NC(=O)COC(=O)Cc1ccc(-c2ccccc2)cc1
  A: -0.6	B: 3%	C: -3	D: -5	E: 20	F: -8.5	G: -3.4	H: -0.4

Cc1c(NS(=O)(=O)c2ccc([N+](=O)[O-])cc2)c(=O)n(-c2ccccc2)n1C
  A: -0.3	B: -2%	C: 5	D: -13	E: -6	F: -0.7	G: -6.0	H: -0.8

CC(C)(C)c1ccccc1NC(=O)CN1C(=O)NC2(CCCCCC2)C1=O
  A: .	B: .	C: 4	D: .	E: .	F: 0.4	G: 0.6	H: -0.8

Cc1csc(=O)n1CCC(=O)OCC(=O)NCc1ccc(Cl)cc1Cl
  A: 0.1	B: 2%	C: -4	D: 5	E: -8	F: 13	G: 4.7	H: 0.3

COc1cccc(-n2nc(C(=O)N3CC(C)CC(C)C3)c3ccccc3c2=O)c1 (stereo not drawn)
  A: .	B: -6%	C: 5	D: 7	E: -7	F: .	G: 4.9	H: -0.7

Part of the list above in another layout:
Fields – RanGTP-Impb inh, Vif A3G, Beta apoptosis, T cruzi inh, Calb FLC, MLL AF4-AF9 inh, LANA-H2A inh, A1 inh
> Cc1ccc(C(C(=O)NC2CCCC2)N(Cc2ccco2)C(=O)CCC(=O)Nc2ccccn2)cc1 (stereo not drawn)
  3.0, 16%&-8%, 2, 21, -1, ., 2.0, 0.9
> CC(NS(=O)(=O)c1ccccc1)C1COc2ccccc2O1 (stereo not drawn)
  3.7, 2%, 4, -1, 28, ., -0.8, 0.0
> O=C(CN1CCCC1)Nc1nc(-c2ccc3c(c2)CCN3C(=O)c2ccccc2F)cs1
  4.0, ., 12, 24, 31, ., 0.5, 0.8
> O=C(NOC(=O)c1ccccc1)c1ccccc1
  12, ., -5, -14, -3, -2.2, -1.9, 2.0
> CCOc1ccccc1NC(=O)COC(=O)Cc1ccc(-c2ccccc2)cc1
  -0.6, 3%, -3, -5, 20, -8.5, -3.4, -0.4
> Cc1c(NS(=O)(=O)c2ccc([N+](=O)[O-])cc2)c(=O)n(-c2ccccc2)n1C
  -0.3, -2%, 5, -13, -6, -0.7, -6.0, -0.8
> CC(C)(C)c1ccccc1NC(=O)CN1C(=O)NC2(CCCCCC2)C1=O
  ., ., 4, ., ., 0.4, 0.6, -0.8

New compounds follow:
Field names: A = RanGTP-Impb inh; B = Vif A3G; C = Beta apoptosis; D = T cruzi inh; E = Calb FLC; F = MLL AF4-AF9 inh; G = LANA-H2A inh; H = A1 inh
CCNc1nc(Oc2ccc(=O)n(-c3ccccc3)n2)nc(N(C)C)n1
  A: 1.3	B: 1%	C: -6	D: -8	E: 4	F: .	G: 9.8	H: 0.0

Cc1cc(CNC(=O)COc2ccccc2)c2ccccc2n1
  A: 1.4	B: -6%	C: .	D: 2	E: 1	F: 1.3	G: .	H: .

CCn1c(O)c(/C=N/N=C/c2ccccc2)c2ccc(C3=NNC(=O)CC3)cc21
  A: 4.6	B: -2%	C: 6	D: 12	E: -33	F: .	G: -8.2	H: .

COc1ccc2nc(NNC(=O)C3COc4ccccc4O3)sc2c1 (stereo not drawn)
  A: 4.8	B: ?	C: -3	D: -14	E: 1	F: 0.4	G: 4.5	H: -0.6

COc1ccc2nc(NC(=O)CN(c3ccc(C)cc3)S(=O)(=O)c3c(C)nn(C)c3C)sc2c1
  A: 2.6	B: 1%	C: 10	D: 8	E: 24	F: .	G: 0.4	H: 0.8

O=C(NCCN1CCN(c2ccccc2F)CC1)c1ccc2nc3ccccc3c(=O)n2c1
  A: 0.3	B: -13%	C: .	D: -10	E: 20	F: 2.1	G: .	H: .

NC(=O)c1ccsc1NC(=O)CCS(=O)(=O)c1ccc(F)cc1
  A: 3.7	B: 2%	C: -19	D: 18	E: 14	F: -5.5	G: -2.7	H: 0.9

COC(=O)CSc1nnc(CNC(=O)c2ccccc2OC)n1C
  A: 0.9	B: 13%	C: 0	D: -12	E: 27	F: .	G: -4.3	H: 0.4

Cc1ccc(Nc2nc(C)c(CCC(C)C)c(=O)[nH]2)cc1
  A: 2.6	B: -5%	C: 7	D: 29	E: -5	F: .	G: -0.2	H: -0.5

Cc1cc(C)c2cc(C#N)c(NCCNC(=S)NCCCN3CCOCC3)nc2c1
  A: 5.4	B: 2%	C: 3	D: 10	E: 14	F: -1.8	G: -0.5	H: 0.7

CC(C)(C)NC(=O)CSCc1c(Cl)cccc1Cl
  A: -1.6	B: -6%	C: 4	D: -13	E: -6	F: 2.4	G: 0.0	H: 1.5

O=C(NCC1CCCO1)C(c1cccs1)N(Cc1ccccc1)C(=O)c1ccc(-c2ccccc2)[nH]1 (stereo not drawn)
  A: 8.7	B: .	C: -3	D: 7	E: -2	F: .	G: 1.7	H: -1.0

Fc1ccccc1CNc1nc(-c2cccnc2)nc2ccccc12
  A: -1.4	B: .	C: 43	D: 36	E: 4	F: -14	G: -2.0	H: -0.5

COc1cccc(CN2CCN(Cc3nc(-c4cccc(F)c4F)oc3C)CC2=O)c1
  A: 0.3	B: 3%	C: -2	D: 16	E: 27	F: 1.7	G: -0.9	H: -0.1

Cc1ccc(Cc2cnc(N)s2)o1
  A: -0.7	B: ?	C: -20	D: -20	E: -5	F: .	G: 4.6	H: 1.6

CCCCc1cc(C)c(S(=O)(=O)c2ccccc2C)c(=O)[nH]1
  A: -0.1	B: -5%	C: -6	D: -1	E: 2	F: -11	G: -0.3	H: 0.4

c1ccc(Cc2nnc(N3CCCCC3)c3ccccc23)cc1
  A: 0.4	B: 0%	C: 5	D: 11	E: 11	F: 1.0	G: -7.0	H: 1.4

Cn1cc(/C=C(\C#N)C(=O)Nc2ncc(Cc3ccc(Cl)cc3)s2)c2ccccc21
  A: -82	B: -11%	C: 9	D: 19	E: 0	F: .	G: 1.9	H: -0.1

O=C(O)c1ccc(CSc2nc3ccc(NC(=O)c4ccccc4C(=O)O)cc3s2)cc1
  A: -2.9	B: 6%	C: -2	D: 0	E: 8	F: -2.4	G: -4.3	H: 1.1

Cc1ccc(C)c2[nH]c(=O)c(CCNC(=O)CCc3ccccc3)cc12
  A: ?	B: .	C: 6	D: 9	E: -6	F: 5.8	G: -2.1	H: 0.4

O=C(Nn1cnnc1)c1ccccc1Cl
  A: -5.4	B: -5%	C: -8	D: -12	E: 3	F: -10	G: 7.9	H: 1.6

Cc1occc(=O)c1O
  A: 0.4	B: 0%	C: 2	D: -15	E: .	F: -2.2	G: 0.7	H: 0.0

COCCCNCCCCOc1ccc(Br)cc1C
  A: -0.9	B: 2%	C: -1	D: 45	E: -6	F: .	G: 4.2	H: 0.9

O=C(CSc1nnc(NC(=O)c2c(F)cccc2Cl)s1)Nc1ccccc1F
  A: -3.1	B: .	C: .	D: -4	E: 1	F: -2.7	G: -1.8	H: -0.4

CCCCNC1C(CC)C(CCC)C(C#N)(C#N)C1(C#N)C#N (stereo not drawn)
  A: 4.3	B: 2%	C: -14	D: -7	E: -4	F: .	G: -2.5	H: 1.1

CC(OC(=O)Cn1c(C(F)(F)F)nc2ccccc21)C(=O)N1CCCc2ccccc21 (stereo not drawn)
  A: .	B: ?	C: -9	D: .	E: .	F: .	G: 26*	H: 0.0
